MgrA-DNA mod = S. aureus MgrA-DNA binding modulation; fluorescence polarization; inhibition, %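 (about 10 µg/mL by stock and volumes)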; 0.13% of 84,000 active; AID 602314;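 active means above 50% in either of two replicates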;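 further: 0% = protein plus DNA without compound and 100% = DNA alone without protein; higher means less MgrA bound to DNA so lower polarization; one replicate is shown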
S aureus helic = S. aureus DNA helicase inhibition | purified S. aureus helicase, fluorescence unwinding assay; about half of the hits fall short of the stated cut | 0.05% of 120,000 active | inhibition, %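 (tested at about 80 µM)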 | AID 485395;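 active means both duplicates at 50% or more, or one of them with a favoured structure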;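 further: 0% = mean of negative control wells and 100% = mean of positive control wells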
* marks the source's active call; other numbers are inactive results; x = not tested or not shown; & = joins results of further samples. Some of the compounds tested (hit frequency here may not be typical).

SMILES	MgrA-DNA mod	S aureus helic
CCCCN(C)S(=O)(=O)c1ccc2c(c1)CCN2C(=O)CCC(=O)O	x	-13.0
Clc1ccc(-c2cn3ccc4ccccc4c3n2)cc1	-3.4	x
CCOC(=O)c1sc(N)c(C#N)c1COC(=O)c1nn(CC)c(=O)c2ccccc12	x	-309.0
Cc1cccc(CS(=O)(=O)Cc2ccc(C(=O)NCCC3=CCCCC3)o2)c1	-1.9	-13.0
Cc1ccccc1OCC(=O)NCCC1=CCCCC1	x	17.0
O/N=C1\Cc2cccc3cccc1c23	x	9.0
COc1ccc(NC(=O)c2ccc(OC)c(OC)c2)cc1	-1.4	x
O=C(CN1CCCCCC1=O)N/N=C/c1c(Cl)nc2sccn12	x	21.0
O=C(OCCN1C(=O)c2ccccc2C1=O)Oc1ccccc1	x	-6.0
Nc1ccc(Oc2ccc(Cl)cc2C2CCCCC2)nc1	-2.6	x
COC(=O)c1cc2ccc(C)cc2[nH]1	x	22.0
Cc1ccc2[nH]c3nc(SCC(=O)O)nnc3c2c1	x	4.0
COc1ccc(Cl)cc1NC(=O)c1cc2c(Cl)nc3ccc(C)cc3c2s1	-3.7	16.0
O=C(/C=C/OC(=O)c1ccc(C(F)(F)F)cc1)c1ccc(F)cc1	4.5	x
O=C(Nc1ccc2n[nH]nc2c1)c1cccc(Cl)c1	-1.4	x
CC1(C)Cc2cccc(OCC(=O)OCC(=O)N3CCN(c4ccccc4)CC3)c2O1	x	-5.0
O=C1C(=Cc2cn[nH]c2-c2ccc(F)cc2)C(=O)c2ccccc21	0.3	-4.0
CC1(C)Cc2cccc(Oc3ccc(S(=O)(=O)N4CCCC4)cn3)c2O1	x	-5.0
Cc1nc(C)c(-c2ccnc(N)n2)s1	0.4	x
S=C1NCN(C(Cc2ccccc2)c2ccccc2)CN1 (stereo not drawn)	0.9	x
Cc1ccccc1C(=O)N1C(=O)c2ccccc2S1(=O)=O	-3.0	11.0
CC(=O)Nc1cc(C(=O)N2CCc3ccccc3C2)ccc1Sc1ccc(Cl)cc1	-4.1	3.0
COc1ccc(CC(CC(=O)O)C(=O)Nc2ccccc2)cc1 (stereo not drawn)	-3.6	-3.0
COC(=O)c1cc(CSc2nnc(-c3cccs3)n2N)oc1C	x	-12.0
C=CCSc1nc2ccsc2c(=O)n1-c1ccccc1	-2.4	x
CCC1C(=O)NCCN1C(=O)/C=C/c1ccccc1 (stereo not drawn)	x	-13.0
COC(=O)c1c(C)nn(-c2ccccc2)c1-c1cc(C)on1	-3.2	x
Fc1ccc(Cc2nc3ccccc3[nH]2)cc1	-1.6	10.0
Cc1ccc(C(=O)Oc2cc(C)cc(OC(=O)c3ccc(C)cc3)c2)cc1	2.0	8.0
FC(F)(F)c1cccc(NC(=S)N2CCCC2)c1	-0.6	x
O=C1C=CC(=O)N1CC(c1ccccc1)c1ccccc1	x	-15.0
COC(=O)Cn1c(Cl)nc2c1c(=O)n(C)c(=O)n2C	0.2	2.0
O=C(O)CN1C(=O)/C(=C2\SC(=S)N(C(Cc3ccccc3)C(=O)O)C2=O)c2ccccc21 (stereo not drawn)	-0.8	x
CC(C)(C)SCCNC(=O)/C=C/c1ccccc1	1.8	x
CCOC(=O)C1=C(C)NC(S)=C(C#N)C1c1ccsc1 (stereo not drawn)	2.3	x
COC(=O)Cn1c(=NC(=O)c2ccc(S(=O)(=O)N3CCCC3)cc2)sc2cc(NC(C)=O)ccc21	x	-4.0
CC(C)(C)C(=O)Oc1ccc2cc(-c3ccc4ccccc4n3)c(=O)oc2c1	0.9	-13.0
CC1CC(C)CN(S(=O)(=O)c2ccc(F)c(C(=O)NCc3ccccc3)c2)C1 (stereo not drawn)	1.0	5.0
CCOC(=O)c1c(-c2ccccc2)csc1NC(=O)C(F)(F)F	0.2	-24.0
Cc1noc(C)c1NC(=O)NC1CCCc2ccccc21 (stereo not drawn)	x	8.0
Cc1noc(C)c1COC(=O)c1cccc(S(=O)(=O)N2c3ccccc3CC2C)c1 (stereo not drawn)	x	9.0
O=C(NCCCO)c1nc2ccccc2s1	0.1	11.0
C/C(=N\NC(=O)c1ccccn1)c1ccc(OC(F)F)cc1OC(F)F	x	8.0
CCOC(=O)c1noc(NC(=O)Cc2ccccc2OC)c1-c1ccccc1	x	-14.0
CCOc1cc2c(cc1CNC(=O)c1cccnc1)OC(C)C2 (stereo not drawn)	x	15.0
Cc1ccc(-c2nnc(SC(C)c3ccccc3)n2N)cc1 (stereo not drawn)	x	2.0
CC(C)CCNC(=O)C1CCN(c2nc3ccccc3o2)CC1	0.8	6.0
O=C(Nc1cccnc1)c1ccccc1Oc1ccccc1	3.0	5.0
Cc1ccccc1NS(=O)(=O)c1ccc2[nH]cc(C(=O)NCCCN3CCOCC3)c(=O)c2c1	x	19.0
CCCc1nc2c(sc(=S)n2-c2ccccc2)c(=O)[nH]1	-0.6	10.0
Fc1ccc(CN2CCCN(Cc3ccc(F)cc3)C2c2csnn2)cc1	-2.2	x
Cc1c(C(=O)Cc2c(O)c3ccccc3oc2=O)sc2nc(C(F)(F)F)nn12	1.6	x
C/C(=C/C(=O)C(F)(F)F)N1CCN(S(=O)(=O)/C=C/c2ccccc2)CC1	x	3.0
COc1ccc(P(=O)(CC(=O)O)c2ccc(OC)cc2)cc1	4.2	-8.0
CNc1ccccc1C(=O)NCCc1ccncc1	-0.8	x
CN(CC(=O)Nc1sccc1C#N)C1CCCCC1	x	1.0
CC(C)C(=O)Nc1ccccc1C(F)(F)F	-0.6	18.0
CCc1nnc(NC(=O)C2c3ccccc3C(=O)N(C)C2c2cccs2)s1 (stereo not drawn)	x	-16.0
COC(=O)Nc1c(C)cc(C)cc1C	-1.9	4.0
N#CCc1ccno1	x	-2.0

Among those listed so far, 5 contain an aryl thioether with sulfur outside any ring.
SMILES	MgrA-DNA mod	S aureus helic
Cc1ccc2[nH]c3nc(SCC(=O)O)nnc3c2c1	x	4.0
CC(=O)Nc1cc(C(=O)N2CCc3ccccc3C2)ccc1Sc1ccc(Cl)cc1	-4.1	3.0
COC(=O)c1cc(CSc2nnc(-c3cccs3)n2N)oc1C	x	-12.0
C=CCSc1nc2ccsc2c(=O)n1-c1ccccc1	-2.4	x
Cc1ccc(-c2nnc(SC(C)c3ccccc3)n2N)cc1 (stereo not drawn)	x	2.0

The results go on.
SMILES	MgrA-DNA mod	S aureus helic
Cc1cc(C)cc(NC(=O)Nc2nnc(N3CC(C)CC(C)C3)s2)c1 (stereo not drawn)	0.9	12.0
Cc1[nH]c2ccccc2c1C(c1cccs1)N1CCC(C(N)=O)CC1 (stereo not drawn)	x	13.0
C=CCNC(=O)C1CC(c2ccc(F)cc2)=NO1 (stereo not drawn)	x	-8.0
CCOC(=O)N1CCN(C(=O)CSc2nc3ccccc3s2)CC1	x	11.0
CCOc1ccccc1NC(=S)N1CCC(NC(=O)c2ccco2)CC1	0.9	14.0
CN1/C(=N\N)c2cccc3cccc1c23	7.2	-23.0
CN(C)C(=O)COc1ncnc2scc(-c3ccccc3)c12	x	-11.0
Cn1cnnc1SCc1cc(=O)c(OCC(=O)N2CCCCC2)co1	x	7.0
CNC(=O)CN(c1ccc2c(c1)OCO2)S(C)(=O)=O	1.9	23.0
N#CC(C(=O)Cc1cccc2ccccc12)c1nc2ccccc2[nH]1 (stereo not drawn)	-0.8	1.0
COC(CNC(=O)c1c[nH]c2ccc(S(=O)(=O)N(C)c3ccccc3C)cc2c1=O)OC	x	6.0
CC(C)Cn1cnc2oc(-c3ccccc3)c(-c3ccccc3)c2c1=N	x	3.0
CC1(C)CC2(CC(C)(C(=O)CSc3nc4ccccc4s3)OC2=O)C(=O)O1 (stereo not drawn)	1.0	-7.0
Nc1nc(-c2cc(Cl)sc2Cl)cs1	x	-2.0
CSc1ccc(-c2ncnn2-c2ccc(Cl)cc2)cc1	x	-15.0

In another format: entries from further up
Molecule | MgrA-DNA mod | S aureus helic
COC(CNC(=O)c1c[nH]c2ccc(S(=O)(=O)N(C)c3ccccc3C)cc2c1=O)OC | x | 6.0
Nc1nc(-c2cc(Cl)sc2Cl)cs1 | x | -2.0
C=CCNC(=O)C1CC(c2ccc(F)cc2)=NO1 (stereo not drawn) | x | -8.0

The results go on:
SMILES	MgrA-DNA mod	S aureus helic
O=C(COc1ccccc1Br)NC1CCCC1	x	-16.0
Cc1ccc(CNC(=O)c2ccc(S(=O)(=O)N3CCCC3)cc2)cc1	x	-2.0
CCOC(=O)C1=C(C)N=c2s/c(=C\c3ccc(-c4cccc(C(=O)O)c4)o3)c(=O)n2C1c1ccc2c(c1)OCO2 (stereo not drawn)	3.1	x
COCCn1c(SCc2ccc(C(=O)OC)o2)nc2ccccc2c1=O	x	5.0
N#CC1=C2C=CC=CN2CC1=O	x	4.0
O=C1OC(c2ccccc2)=N/C1=C/c1cccc(F)c1	x	-8.0
CC1(C)Cc2c(C#N)c(NCC3CCCO3)nc(-c3ccccc3)c2CO1 (stereo not drawn)	1.3	0.0
Cc1ccc(S(=O)(=O)N2CC=C(c3ccc(F)cc3)CC2)cc1	-1.4	8.0
COc1ccc(OCc2nc3ccccc3n2CC(C)C)cc1	-1.3	8.0
O=C(CSC1=NCCS1)N1CCc2ccccc21	x	4.0
CCOC(=O)/C=C1\SCC(=O)N1CCOC(=O)c1cc2c(C)nn(-c3ccccc3)c2s1	x	-67.0
CCOC(=O)c1cc2occc2n1Cc1c(F)cccc1Cl	-0.9	4.0
O=C(/C=C/c1cccc(Cl)c1Cl)Nc1cc2ccccc2oc1=O	x	-10.0
CSc1sc(C#N)c2c1/C(=N/OC(C)=O)CCC2	x	-1.0
Cn1c(CN2CCOCC2)c(C#N)c2ccccc21	1.8	-3.0
Cc1ccc2nc(SCC(=O)c3cc4c5c(c3)CC(=O)N5CCC4)[nH]c2c1	x	8.0
Cn1c(=O)c2c(O)cc(=O)oc2c2ccccc21	0.6	x
Cc1ccc(/C(=C\CN2CCCC2)c2ccccn2)cc1	3.3&-0.6	x
C=CCNC(=O)c1ccc2c(c1)N(Cc1ccccc1)C(=O)CS2	-0.8	3.0
Cc1cc(S(=O)(=O)Nc2nc(CN3CCOCC3)nc3sc4c(c23)CCC4)ccc1F	x	-13.0
COc1ccc(/C=C2/Oc3ccccc3N(CC(=O)O)C2=O)cc1	-3.5	16.0
O=C(O)C1CCN(/C=C/C(=O)C(F)(F)F)CC1	x	-5.0
CC(C)NC(=O)c1ccccc1N	-1.7	x
CCN(Cc1nc(-c2ccc(C)cc2)no1)C(=O)NC(C)(C)C	-4.3	6.0
CCn1c(=O)c2ccccc2n(CC(=O)N2CCCCC2C)c1=O (stereo not drawn)	-1.9	1.0
Cc1ccc(S(=O)(=O)NCCC(=O)Oc2cc3oc(=O)c4c(c3cc2Cl)CCCC4)cc1	0.4	2.0
Cc1ccc2nsnc2c1NC(=O)c1cccc(Cl)c1	x	-1.0
CCOc1ccc(CCNC(=O)c2cc3c(C)nc4ccccc4c3o2)cc1OCC	-3.1	4.0
O=c1cc(-c2ccccc2)oc2cc(O)cc(O)c12	2.5&1.2	x
O=C1/C(=C/C2=Cc3ccccc3OC2)SC(=S)N1C1CCS(=O)(=O)C1 (stereo not drawn)	0.3	-82.0
O=S(=O)(c1ccc(Cl)cc1)N1CCC(n2cccc2)CC1	-1.3	x
CC(C)CNC(=S)N1CCC(c2nc(-c3ccc(F)cc3)no2)CC1	-1.4	15.0
OC(Cn1ccc2ccccc21)Cn1cnc2ccccc21 (stereo not drawn)	-0.3	2.0
O=C(Cn1cnc2c(oc3ccccc32)c1=O)Oc1ccccc1Cl	x	-6.0
COc1ccc(C2CC(=O)n3nc(-c4ccc(F)cc4)nc3S2)cc1OC (stereo not drawn)	x	15.0
Cn1c(C(C#N)C(=O)c2ccc(C(C)(C)C)cc2)nc2ccccc21 (stereo not drawn)	-1.3	-6.0
CC12NC(=O)NC1(C)NC(=O)N2 (stereo not drawn)	-2.3	x
CCc1cc(=O)oc2c3c(ccc12)OCN(Cc1ccccc1)C3	x	24.0
FC(F)(F)Oc1ccc(-n2nnnc2SCCN2CCCCC2)cc1	x	15.0
CC1(C)Cc2cccc(C(=O)NCc3ccco3)c2O1	-1.9	x
O=c1[nH]c(=S)[nH]c2c1CCCC2	x	5.0
CCN=C1NC(=O)C(CC(=O)Nc2ccc(Oc3ccccc3)cc2)S1 (stereo not drawn)	x	-10.0
CC(=O)Nc1cccc(NC(=O)CSc2ncc(C(=O)Nc3ccccc3)c(=O)n2C)c1	x	10.0
Cc1oc2ccc(NS(=O)(=O)c3ccccc3)cc2c1C(=O)O	3.0	13.0
O=C1CC(c2ccccc2)C(=O)N1c1cc(Cl)cc(Cl)c1 (stereo not drawn)	-2.1	x
CN1CCC(OC(c2ccccc2)c2ccccc2)CC1	21.1&1.4	x
O=C(/C=C/c1ccccc1)Nc1cccnc1Oc1ccc(F)cc1	1.0	x
COCCn1c(=NC(=O)CCOc2ccccc2)sc2cc(OC)ccc21	x	7.0
CC1CCN(CC(=O)Nc2ccc(C(=O)O)cc2)CC1	-2.4	-2.0
Cn1nccc1C(=O)Nc1ccc(Cl)cc1	-2.1	8.0
Cc1ccc2c(c1)CN1CN2Cc2cc(C)ccc21	2.3	6.0
O=C(NC1CCN(Cc2ccccc2)CC1)c1c(Cl)cccc1Cl	-0.8	x
CCOc1ccc(C2=CSC3=NCCN23)cc1Cl	-1.7	1.0
O=C(COC(=O)C1COc2ccccc2O1)c1ccccc1 (stereo not drawn)	x	-9.0
OCCNc1nc(-c2ccccc2)c2cc(Cl)ccc2n1	x	-3.0
CCn1c2ccccc2c2cc(NC(=O)C(C)N3CC(C)OC(C)C3)ccc21 (stereo not drawn)	x	-3.0
CCc1cc(=O)oc2c(C)c(OC3CCCCC3=O)ccc12 (stereo not drawn)	0.1	1.0
Cc1ccc(-c2cc(=O)c(=O)[nH][nH]2)cc1	3.9	6.0
O=C(NNc1ncccc1-n1cccc1)Nc1ccc(OC(F)(F)F)cc1	x	4.0

Exported as comma-separated lines: entries from further up
Molecule,MgrA-DNA mod,S aureus helic
CCn1c2ccccc2c2cc(NC(=O)C(C)N3CC(C)OC(C)C3)ccc21 (stereo not drawn),x,-3.0
CCc1cc(=O)oc2c(C)c(OC3CCCCC3=O)ccc12 (stereo not drawn),0.1,1.0

Source: PubChem
